Source: PubChem BioAssay (National Center for Advancing Translational Sciences (NCATS))
MARV entry inh – Marburg virus entry inhibition; AID 540276; Potency, µM (doses to about 37.8 µM), without a hit: at the top dose activity change, negative = inhibition, most hits filed as inhibitors; actives 1.8% (n = 300,000); Marburg virus pseudotyped entry inhibition, cell reporter; control for the full effect not named in the record; about a third of the inactives were read at about 46 µM; active = well fitted inhibition curve with a large enough effect; inconclusive = small, poorly fitted or top-dose-only effect, or effect the other way; inactive = flat fitted curve, though single readings scatter; tested in HEK293 cells; about a fifth of its hits are not listed in these tables; note: % is set by controls: 0 for no effect and ±100 for the full control effect; luciferase read-out
Lassa entry inh – inhibitors of Lassa virus binding or cell entry; Lassa virus pseudotype entry inhibition, cell reporter; control for the full effect not named in the record; Potency, µM (series often up to 37.9 µM), for the others: at the top dose activity change, negative = inhibition, usual class: inhibitors; actives 1.2% (n = 300,000); AID 540256; active means well fitted inhibition curve with a large enough effect; inconclusive means small, poorly fitted or top-dose-only effect, or effect the other way; inactive means flat fitted curve, though single readings scatter; tested in HEK293 cells; note: % is set by controls: 0 for no effect and ±100 for the full control effect; nearly all actives have a fitted effect of over 50% in size; luciferase read-out
Cruzain Triton – cruzain (T. cruzi) inhibition with detergent. P25779. purified cruzain, Z-FR-AMC fluorescence, 0.01% Triton. Potency, µM, without a hit: max response, negative = inhibition, actives largely listed as inhibitors. actives 0.43% (n = 200,000);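 note: plate controls were neutral wells for no effect and buffer without enzyme for full effect; nearly all actives have a fitted effect of over 40% in size; top concentration of the series not given in the record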
Target sequence (P25779 123-467 limits assumed): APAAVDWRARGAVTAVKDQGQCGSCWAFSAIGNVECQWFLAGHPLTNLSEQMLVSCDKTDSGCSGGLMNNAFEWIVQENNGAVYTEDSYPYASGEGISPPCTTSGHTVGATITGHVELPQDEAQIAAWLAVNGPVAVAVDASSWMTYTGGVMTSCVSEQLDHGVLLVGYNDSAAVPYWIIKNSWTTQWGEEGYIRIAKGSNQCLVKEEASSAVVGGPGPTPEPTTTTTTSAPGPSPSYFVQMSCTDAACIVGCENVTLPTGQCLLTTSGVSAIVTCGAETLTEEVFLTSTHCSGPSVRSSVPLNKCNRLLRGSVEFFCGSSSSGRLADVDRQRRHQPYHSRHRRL
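15 min RT preincubation of 1.5 nM cruzain with compound, then 2 uM Z-FR-AMC added; kinetic AMC fluorescence, 60 s delta. Triton X-100 0.01%, pH 5.5.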
RE007 growth inh – less growth of the S. pombe RE007 Vpr strain. S. pombe RE007 Vpr strain, BacTiter-Glo ATP luminescence, 24 h; control for the full effect not named in the record. Potency, µM (titrated, usually from 92.2 µM), without a hit: at the top dose activity change, negative = less growth. actives 0.21% (n = 360,000); active = well fitted falling curve with a large enough effect; inconclusive = small, poorly fitted or top-dose-only effect; inactive = no such curve, though single readings can be large or run the other way;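 note: % is set by controls: 0 for no effect and ±100 for the full control effect; nearly all actives have a fitted effect of over 50% in size; the assay follows cell death caused by Vpr and the record does not say whether a fall means rescue or toxicity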
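Fission yeast strain RE007, carrying one chromosomally integrated HIV-1 vpr copy, was seeded at OD 0.01 in PMG+AL medium with 23 nL pinned compound. After 24 h at 30 °C and 99% humidity, viability was read by BacTiter-Glo luminescence.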
Cruzain noTriton – cruzain (T. cruzi) inhibition without detergent. P25779. purified cruzain, Z-FR-AMC fluorescence, no detergent. Potency, µM, inactives show max response, negative = inhibition, most hits filed as inhibitors. actives 2.3% (n = 200,000);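 note: plate controls were enzyme without inhibitor for no effect and buffer without enzyme for full effect; nearly all actives have a fitted effect of over 40% in size; top concentration of the series not given in the record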
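Purified cruzain at 1.5 nM, pre-incubated 15 min with compound at room temperature in 100 mM sodium acetate pH 5.5, 5 mM DTT, 0.00005% Triton X-100. Reaction started with 2 uM Z-FR-AMC; AMC fluorescence increase over 60 s gives rate.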
NS1 function inh – influenza NS1 inhibition; S. cerevisiae slowed by influenza A NS1, growth recovery by OD600; Potency, µM (series often up to 46.1 µM), for inactives: top-dose activity, positive = more growth; actives 0.4% (n = 270,000); AID 2326; active means well fitted rising curve with a large enough effect; inconclusive means small, poorly fitted or top-dose-only effect; inactive means no such curve, though single readings can be large or run the other way; note: nearly all actives have a fitted effect of over 50% in size
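Read-out: OD600 growth recovery of NS1-expressing budding yeast. Cells grown overnight at 30C in -URA glucose medium, washed, resuspended and diluted 1:100 in 2% galactose assay medium, pH 6.0. Same strain lacking NS1 served as positive control.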
StopGo reporter – FMDV 2A StopGo reporter, luciferase signal | human cells with a luciferase reporter of 2A StopGo recoding; control for the full effect not named in the record | Potency, µM (top dose mostly 57.9 µM), without a hit: at the highest dose signal change, negative = less light | actives 1.2% (n = 410,000) | AID 1159524; active = well fitted falling curve with a large enough effect; inconclusive = small, poorly fitted or top-dose-only effect; inactive = no such curve, though single readings can be large or run the other way; tested in HEK293T cells; note: % is set by controls: 0 for no effect and ±100 for the full control effect; nearly all actives have a fitted effect of over 45% in size; luciferase light after 4 h
SARS PLP yeast – blocks SARS-CoV papain-like protease in a yeast assay; AID 485353; S. cerevisiae expressing SARS-CoV PLpro, growth rescue; control for the full effect not named in the record; Potency, µM (top dose mostly 32.9 µM), for the others: at the highest dose activity, positive = growth rescue; actives 0.19% (n = 330,000); active means well fitted rising curve with a large enough effect; inconclusive means small, poorly fitted or top-dose-only effect; inactive means no such curve, though single readings can be large or run the other way; note: 0% is about no effect; nearly all actives have a fitted effect of over 55% in size; growth read by luminescence after 48 h
The depositor's hits bear a star; ? = inconclusive; nt = no result given; [ ] = dose if it differs, or a comment. Unless noted, calls come from the whole dose curve; as a rule, active = well fitted curve in the direction sought with a large enough effect; inconclusive = small, poorly fitted or top-dose-only effect, or another doubt; inactive = no such curve, though single readings can be large; an effect the other way counts as inactive or inconclusive. Potency is the fitted concentration of half-maximal effect. Hits appear at their usual frequency; any-hit rate near 4.5%.

The opening 3 compounds, ahead of the listing:
SMILES	MARV entry inh	Cruzain noTriton	Lassa entry inh	RE007 growth inh	Cruzain Triton	SARS PLP yeast	NS1 function inh	StopGo reporter
CCOC(=O)C(NC(=O)NCc1ccc(OC)cc1)(OCC)C(F)(F)F (configuration not stated)	1.7%	-5.2%	-19.0%	-9.3%	3.3%	-17.6%	-4.7%	-12.0%
CC(CN1CCCC1)OC(=O)COc1ccccc1 (configuration not stated)	2.0%	1.8%	12.3%	-2.4%	-2.4%	?	2.9%	9.8%
CCCCC(=O)Nc1ccc(C(=O)NNC(=S)NC(=O)c2cccs2)cc1	?	-3.6%	12.6%	-5.0%	0.8%	-28.2%	12.6%	-17.5%

All compounds of this part, previewed entries included:
SMILES	MARV entry inh	Cruzain noTriton	Lassa entry inh	RE007 growth inh	Cruzain Triton	SARS PLP yeast	NS1 function inh	StopGo reporter
CCOC(=O)C(NC(=O)NCc1ccc(OC)cc1)(OCC)C(F)(F)F (configuration not stated)	1.7%	-5.2%	-19.0%	-9.3%	3.3%	-17.6%	-4.7%	-12.0%
CC(CN1CCCC1)OC(=O)COc1ccccc1 (configuration not stated)	2.0%	1.8%	12.3%	-2.4%	-2.4%	?	2.9%	9.8%
CCCCC(=O)Nc1ccc(C(=O)NNC(=S)NC(=O)c2cccs2)cc1	?	-3.6%	12.6%	-5.0%	0.8%	-28.2%	12.6%	-17.5%
CC(C)CC(=O)Nc1ccc(-c2cn3ccsc3n2)cc1	-12.0%	-6.5%	2.9%	-16.4%	0.6%	-7.0%	-6.6%	-24.0%
O=C(CSc1nc2ccccc2n1CC(=O)N1CCOCC1)N1CCCC1	?	-8.4%	-16.9%	1.6%	-0.9%	18.7%	6.5%[9.22 µM]	-20.6%
Cc1c(C(=O)Nc2ccccc2)sc2nc[nH]c(=O)c12	-2.1%	1.3%	8.5%	5.8%	4.6%	5.4%	6.4%	9.4%
CC(C)[C@H](NC(=O)c1ccccc1)C(=O)OCC(=O)NCCc1ccc(F)cc1	-12.0%	-2.9%	2.5%	9.7%	-13.1%	-49.5%	-15.4%	-19.7%
COc1cc(/C=N/N2CCOCC2)ccc1OCc1ccccc1	?	nt	-3.5%	-19.1%	nt	-6.0%	-8.6%	0.0%
O=C(NCC1CCCO1)c1cccc(F)c1 (configuration not stated)	-13.5%	-1.1%	7.9%	30.3%	4.0%	1.1%	-1.7%	9.7%
CCc1nn(CC(=O)N2CCN(c3cccc(C)c3C)CC2)c(=O)c2cc3sccc3n12	27.7%[46.1 µM]	3.2%	nt	nt	-1.9%	nt	nt	-17.1%
COc1ccc(N2C(=O)Cc3c2nc(N)c(C#N)c3N)cc1	16.1%[46.1 µM]	nt	9.5%	2.7%	nt	-0.8%	3.2%	-4.9%
CCOc1ccccc1NC(=O)CN1C(=O)C2(SCC(=O)N2c2ccc(C)cc2)c2ccccc21 (configuration not stated)	nt	-6.7%	-17.6%[46.1 µM]	nt	-1.5%	nt	nt	-13.2%
O=C1C(=O)N(CCCN2CCOCC2)C(c2ccc(Cl)cc2)/C1=C(/O)c1ccc(F)cc1 (configuration not stated)	nt	nt	nt	2.3%	nt	1.5%	0.6%	-16.0%
O=[N+]([O-])c1cccnc1N1CCN(Cc2ccc3c(c2)OCO3)CC1	2.3%	nt	-0.4%	-1.1%	nt	0.3%	14.1%	-21.1%
C/C(Cc1ccccc1)=N\NC(=O)c1ccccn1	nt	nt	nt	2.6%	nt	0.3%	-13.3%	22.2%

A second format for part of the listing above.
Order of values – MARV entry inh | Cruzain noTriton | Lassa entry inh | RE007 growth inh | Cruzain Triton | SARS PLP yeast | NS1 function inh | StopGo reporter
> COc1cc(/C=N/N2CCOCC2)ccc1OCc1ccccc1
    ? | nt | -3.5% | -19.1% | nt | -6.0% | -8.6% | 0.0%
> O=C(NCC1CCCO1)c1cccc(F)c1 (configuration not stated)
    -13.5% | -1.1% | 7.9% | 30.3% | 4.0% | 1.1% | -1.7% | 9.7%
> CCc1nn(CC(=O)N2CCN(c3cccc(C)c3C)CC2)c(=O)c2cc3sccc3n12
    27.7%[46.1 µM] | 3.2% | nt | nt | -1.9% | nt | nt | -17.1%
> COc1ccc(N2C(=O)Cc3c2nc(N)c(C#N)c3N)cc1
    16.1%[46.1 µM] | nt | 9.5% | 2.7% | nt | -0.8% | 3.2% | -4.9%
> CCOc1ccccc1NC(=O)CN1C(=O)C2(SCC(=O)N2c2ccc(C)cc2)c2ccccc21 (configuration not stated)
    nt | -6.7% | -17.6%[46.1 µM] | nt | -1.5% | nt | nt | -13.2%
> O=C1C(=O)N(CCCN2CCOCC2)C(c2ccc(Cl)cc2)/C1=C(/O)c1ccc(F)cc1 (configuration not stated)
    nt | nt | nt | 2.3% | nt | 1.5% | 0.6% | -16.0%

(more compounds)
SMILES	MARV entry inh	Cruzain noTriton	Lassa entry inh	RE007 growth inh	Cruzain Triton	SARS PLP yeast	NS1 function inh	StopGo reporter
CC1(N2CCOCC2)C(=O)c2ccccc2C1=O	-0.1%	2.3%	2.7%	-6.6%	-1.5%	4.6%	7.3%	0.4%
Cc1ccc(NC(=O)C[n+]2ccn(C3=C([O-])c4ccccc4C3=O)c2)cc1	17.8%[46.1 µM]	nt	3.8%	-0.9%	nt	1.5%	-1.5%	15.8%
Brc1cccc(CNCc2ccncc2)c1	?	nt	3.8%[46.1 µM]	-2.9%	nt	2.6%	2.1%	3.0%
CC(=O)N1CCCc2cc(S(=O)(=O)N(CCN(C)C)Cc3ccccc3)ccc21	nt	-3.6%	24.5%[46.1 µM]	nt	-0.6%	nt	nt	-2.4%
Cc1ccc(C2CCN(C(=S)NC(C)C)C2)cc1 (configuration not stated)	0.4%[46.1 µM]	nt	-11.4%[46.1 µM]	-2.5%	nt	3.0%	nt	29.5%
N#Cc1c(SCC(N)=O)nc2c(c1-c1ccc(O)cc1)CCCC2	?	-3.7%	?	1.5%	-1.2%	9.6%	-1.5%	-16.6%
O=C(COc1cccc(Br)c1)N/N=C1\CCCc2ccccc21	-1.3%[46.1 µM]	nt	4.2%	-8.7%	nt	-2.7%	nt	4.0%
O=C(O)CN1C(=O)SC(Nc2ccccc2C(=O)O)C1=O (configuration not stated)	0.9%	-10.0%	-1.2%	2.9%	-1.5%	-9.1%	0.7%	-7.4%
O=S(=O)(N/N=C\c1cn(-c2ccccc2)nc1-c1ccccc1)c1ccccc1	-4.9%	?	11.8%	-6.0%	-3.1%	6.9%	-5.5%	nt
CCCCOc1cccc(C(=O)Nc2cc(NC(=O)c3ccco3)ccc2OC)c1	?	12.4%	-24.4%[46.1 µM]	nt	-9.5%	nt	nt	0.0%
CCOc1ccc(NC(=O)N2CCN(c3nnc(C)c4c(C)n(-c5ccccc5)nc34)CC2)cc1	nt	8.4%	4.3%[46.1 µM]	nt	4.7%	nt	nt	5.3%
CC(NC(=O)OCc1ccccc1)C(=O)OCN1C(=O)c2ccccc2C1=O (configuration not stated)	-5.7%	-19.7%	12.5%	-3.4%	?	2.9%	-97.1%	-16.4%
COC(=O)c1ccc(C(=O)OC)c(NC(=O)c2cnn3c(C(F)F)cc(-c4ccccc4)nc23)c1	nt	-0.9%	12.0%[46.1 µM]	nt	-0.4%	nt	nt	-12.4%
COc1ccc(S(=O)(=O)N2CCNCC2)cc1	-22.4%[46.1 µM]	nt	2.2%[46.1 µM]	13.7%	nt	-0.1%	5.6%	-8.2%
COCCCn1c(=O)c2sccc2n2c(CCCC(=O)NCC3CCCO3)nnc12 (configuration not stated)	0.1%[46.1 µM]	nt	7.0%[46.1 µM]	2.9%	nt	2.4%	7.5%	-26.8%
N=c1n(CCN2CCCCC2)c2ccccc2n1CC(O)COc1ccc(Cl)cc1Cl (configuration not stated)	5.62µM*	-8.2%	?	nt	-8.3%	nt	nt	-15.9%
CCOC(=O)c1[nH]c(C)c(/C=N/O)c1C	17.6%	1.2%	13.1%	-14.4%	1.2%	-3.3%	-10.8%	-19.8%
Cc1ccccc1C1c2[nH]c3ccccc3c2C[C@H]2C(=O)N(C3CC3)CC(=O)N12 (some centres not stated)	?	nt	-4.6%[46.1 µM]	3.2%	nt	0.4%	1.9%	20.3%
